Arbovirus inh: antivirals against arbovirus infection; arbovirus infection cell-based antiviral screen; inhibition, % at 10 µM; 0.37% of 200,000 active; AID 1251;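 active means inhibition from about 30%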;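 further: bluetongue infection of BSR cells; cell survival read as ATP light after 72 h; 0% = infected wells without compound and 100% = uninfected wells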
Mtb betalactam: beta-lactam sensitization of Mtb H37Rv; M. tuberculosis H37Rv growth with meropenem, percent inhibition; hits of this screen are not shown here; inhibition, % at 25 µM; 0.27% of 330,000 active; AID 434955;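 active means about 74% or more and at least 40 points above the plate without the antibiotic, then above 30% in a dose series; inconclusive means first-round hits that could not be retested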;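 further: growth measured after seven days incubation then overnight dye step; 0% = bacteria only wells and 100% = bacteria with antibiotic; twin plates without the antibiotic show which effects depend on it; some results filed as inactive read as strong as hits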
YopH inh: blocks Yersinia enterocolitica YopH tyrosine phosphatase | fluorescence Ex485/Em525 | inhibition, %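 (about 10 µM by stock and volumes)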 | 0.16% of 140,000 active | AID 898;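 active means inhibition of 50% or more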;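 further: controls were vehicle for no effect and minimum signal wells for full effect; inactives centre near -20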
RecA intein inh: blocks M. tuberculosis RecA intein splicing | inhibition, %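 (about 9 µM by stock and volumes)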 | cell-free RecA intein splicing, fluorescence | 0.75% of 290,000 active | P9WHJ3; in the data active means inhibition above about 30%; inconclusive means no clear call, values can overlap the other calls;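 further: 0% = vehicle wells and 100% = reference inhibitor control wells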
Target sequence (P9WHJ3 whole entry, looked up): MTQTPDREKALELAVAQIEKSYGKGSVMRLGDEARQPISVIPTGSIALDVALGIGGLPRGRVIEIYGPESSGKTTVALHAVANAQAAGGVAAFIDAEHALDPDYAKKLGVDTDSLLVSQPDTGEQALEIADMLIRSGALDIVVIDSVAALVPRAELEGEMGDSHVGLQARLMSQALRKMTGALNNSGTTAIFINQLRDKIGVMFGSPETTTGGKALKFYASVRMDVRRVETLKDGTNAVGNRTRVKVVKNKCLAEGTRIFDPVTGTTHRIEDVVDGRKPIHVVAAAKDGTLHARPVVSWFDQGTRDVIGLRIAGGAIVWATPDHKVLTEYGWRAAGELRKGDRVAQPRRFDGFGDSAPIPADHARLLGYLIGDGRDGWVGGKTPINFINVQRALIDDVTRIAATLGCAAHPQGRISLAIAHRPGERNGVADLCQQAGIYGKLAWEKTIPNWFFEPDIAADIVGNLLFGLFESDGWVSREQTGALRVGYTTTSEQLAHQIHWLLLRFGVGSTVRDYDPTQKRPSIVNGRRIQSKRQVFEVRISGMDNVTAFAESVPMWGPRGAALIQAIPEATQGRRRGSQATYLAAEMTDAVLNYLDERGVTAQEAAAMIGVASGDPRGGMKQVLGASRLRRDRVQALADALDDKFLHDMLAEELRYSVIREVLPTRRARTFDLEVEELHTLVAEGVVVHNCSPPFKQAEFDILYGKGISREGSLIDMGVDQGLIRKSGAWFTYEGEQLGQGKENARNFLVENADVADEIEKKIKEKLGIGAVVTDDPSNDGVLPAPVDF
Mtb growth: M. tuberculosis H37Rv growth inhibitors, H37Rv strain (AID 1626). M. tuberculosis H37Rv growth inhibition; higher % means a stronger effect. inhibition, % at 10 µM; hits with a dose series show IC50 in µM. 0.95% of 220,000 active;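 active means confirmed in a dose series; inconclusive means inhibition above 80% but not taken into the dose series; inactive means below 80% or under 30% at every dose of the series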;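 further: bacteria incubated seven days before Alamar blue readout; 0% = bacteria only wells and 100% = bacteria with antibiotic wells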
Arbovirus inh repeat: further read-out of Arbovirus inh, marked with its call; inhibition, %; measured here: 10K subset replicate screen; many hits read low in the repeat;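 first of two repeat runs on a subset; 0% = infected and 100% = uninfected wells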
An asterisk follows results filed as active; u = inconclusive; x = no result given. Some of the compounds tested; count on the stated rates, not on these rows.

SMILES	Arbovirus inh	Mtb betalactam	YopH inh	RecA intein inh	Mtb growth	others
Cc1ccc2c(c1)N(CCC(=O)NCCN1CCOCC1)C(=O)CO2	2	-9	14	-3.6	1%
CNC(=O)/C(=C\c1ccc([N+](=O)[O-])cc1)NC(C)=O	2	-4	-44	-0.8	x
CCN(C(=O)c1cc(S(=O)(=O)N2CCOCC2)cn1C)c1cccc(C)c1	x	-3	x	-5.6	x
C=CCn1c(SCC(=O)c2ccc(OC)cc2)nnc1-c1cc2cccc(OC)c2o1	-5	3	-11	3.1	-6%
CCOC(=O)C1CCN(Cc2cc(=O)oc3cc(C)ccc23)CC1	x	0	x	1.6	x
COc1ccc(NC(=O)Nc2cccc(Cl)c2Cl)c(OC)n1	x	-3	x	-1.7	-7%
COc1ccc2c(n1)Sc1nc3ccccc3nc1N2	x	10	x	-4.1	-16%
COc1cc(C(=O)NCCN2CCOCC2)cc(OC)c1OC	6	6	-20	-4.6	-7%
Cc1c(C(=O)NCCSCc2ccco2)cccc1[N+](=O)[O-]	1	-4	-13	0.4	2%
CCc1ccc(NC(=O)C2C3C=CC(C4CC34)C2C(=O)O)cc1 (centres undefined)	-6	44	-21	0.0	3%
CCCc1cc(=O)[nH]c(SCC(N)=O)n1	-2	-3	-39	x	1%
CCN(CC)S(=O)(=O)c1cccc(C(=O)OCC(=O)N2CC(=O)Nc3ccccc32)c1	1	-1	-47	-0.4	-2%
COc1ccc(NS(=O)(=O)c2cc(NC(=O)c3ccco3)ccc2N2CCCC2)cc1	-6	29	-5	0.0	3%
Cc1ccc(S(=O)(=O)N2CCN(C(=O)C3CCCC3)CC2)cc1C	x	2	x	0.0	x
CCN(CC)C(=O)CSc1nc2ccccc2c(=O)n1CCC(=O)N1CCN(c2ccccc2)CC1	-3	8	x	0.5	4%
COc1ccc(-n2nnnc2SCC(=O)Nc2nnc(C)s2)cc1	4	1	-18	-1.3	2%
CN(C)S(=O)(=O)N(CC(=O)N1CCOCC1)c1ccccc1	1	0	-43	-1.2	-2%
COc1ccccc1N(CC(O)CN1C(C)CCCC1C)S(=O)(=O)c1ccccc1 (centres undefined)	x	-8	x	10	x
Nc1c(C(=O)Nn2cnnc2)cc([N+](=O)[O-])cc1[N+](=O)[O-]	13	6	-37	-0.1	22%
Cc1cccc2cc(C#N)c(NCCNC(=O)NC3CCCCC3)nc12	-13	-4	6	-11	-10%
CC(=O)N1CCc2cc(S(=O)(=O)NC(CC(C)C)C(=O)N3CCCC3)ccc21 (centres undefined)	x	-5	x	-0.8	x
COc1cccc(NC(=O)CSCc2n[nH]c(=O)[nH]2)c1	1	-5	18	1.0	-6%
O=C(/C=C/c1cc(Br)ccc1O)c1ccco1	x	100	x	2.6	u
COc1cccc(C(=O)NCCCNC(=O)c2ccccn2)c1	x	-14	x	-0.2	x
CC(=O)c1ccc(N/N=C(/C(N)=O)C2=NC(C)(C)Cc3ccccc32)cc1	-17	6	-13	3.6	8%
Cc1ccc(C(=O)COC(=O)CNS(=O)(=O)c2ccc(C)cc2)cc1	x	u	x	4.4	x
Cc1ccc2nc(Cl)c(C3CC(c4cccs4)=NN3C(=O)CCCC(=O)O)cc2c1 (centres undefined)	4	2	-40	-2.0	-5%
O=C(C1=C(O)C(=O)N(Cc2ccco2)C1c1cccc(O)c1)c1ccco1 (centres undefined)	x	-7	x	1.2	x
S=c1[nH]nc(COc2ccc(Cl)cc2)n1-c1ccccc1	x	-6	x	0.6	x
Cc1cccc(CN2CCC(CNC(=O)CCNC(=O)Cn3ccc4ccccc4c3=O)CC2)c1	1	-3	-29	-0.2	1%
COc1cccc(C2=CC(c3ccc(OC)c(OC)c3OC)n3nnnc3N2)c1 (centres undefined)	2	94	-15	-9.6	-9%
O=C(CC1SC(=O)N(c2ccccc2)C1=O)Nc1ccc(Cl)cc1 (centres undefined)	x	3	x	0.7	-11%
Cc1cccc(C)c1Nc1c(-c2ccc(N3CCOCC3)cc2)nc2cnccn12	x	-3	x	-51	1%
O=C(O)CSc1nc2ccccc2c(=O)[nH]1	3	-8	-51	-3.3	-7%
Cc1c(C(=O)OC(C)C(C)C[N+](C)(C)C)oc2ccccc12 (centres undefined)	3	-5	2	-1.9	-3%
CCOc1cc(C(=O)OCC(=O)Nc2c(C)cccc2C)ccc1OCC(=O)N1CCOCC1	4	-8	-26	0.3	-1%
Cc1ccccc1C(=O)Nc1nnc(-c2ccco2)o1	-2	93	x	2.4	u
N#Cc1ccc(C(=O)Nc2nnc(-c3ccccn3)o2)cc1	-4	81	-31	-1.0	2%
CCCc1cc(-c2nc(N)ncc2-c2ccc3c(c2)OCCCO3)c(O)cc1OC	-45	99	-3	9.6	-75%
Clc1cccc(CSc2ccc(-c3ccco3)nn2)c1	-22	-1	x	9.4	7%
Cc1ccccc1Cn1cc(NC(=O)c2cc3nc(-c4ccco4)cc(C(F)(F)F)n3n2)cn1	-14	-9	-13	-4.6	-2%
CCOc1ccc(NC(=O)CN(C)C(=O)c2cc([N+](=O)[O-])ccc2N2CCCCC2)cc1OCC	x	-7	x	4.2	x
COC(=O)c1c(NC(=O)C(C)(C)C)sc2c1C(C(=O)OC)CC2 (centres undefined)	6	0	6	2.8	-12%
O=C(CSc1nnc(-c2cccs2)o1)NCC1CN(Cc2ccccc2)CCO1 (centres undefined)	-2	92	6	-1.1	u
COc1ccc(NS(=O)(=O)c2cc(NC(=O)/C=C/c3ccccc3OC)ccc2N2CCCCC2)cc1	-4	1	-14	2.5	8%
CC(=O)c1c(C)[nH]c(C(=O)Nc2nc(-c3ccc(Cl)cc3)cs2)c1C	-8	70	-29	-2.2	1%
Cc1ccc(C2(C)NC(=O)N(CC(=O)Nc3ccccc3N3CCCC3)C2=O)cc1 (centres undefined)	x	-1	x	10	x
CCOC(=O)c1c(NC(=O)C2C3CCC(O3)C2C(=O)O)sc2c1CCC(CC)C2 (centres undefined)	-11	2	x	-0.1	-7%

Overlap with the part before: 2 entries, then new ones.
SMILES	Arbovirus inh	Mtb betalactam	YopH inh	RecA intein inh	Mtb growth	others
Cc1ccc(C2(C)NC(=O)N(CC(=O)Nc3ccccc3N3CCCC3)C2=O)cc1 (centres undefined)	x	-1	x	10	x
CCOC(=O)c1c(NC(=O)C2C3CCC(O3)C2C(=O)O)sc2c1CCC(CC)C2 (centres undefined)	-11	2	x	-0.1	-7%
CCS(=O)(=O)N1CCN(Cc2ccncc2)CC1	0	1	-38	x	-12%
O=C(COC(=O)c1ccc(=O)[nH]c1)Nc1cccc(S(=O)(=O)N2CCOCC2)c1	x	9	x	x	10%
COC(=O)c1cc(NS(=O)(=O)c2ccc(N3CCCCC3)c([N+](=O)[O-])c2)cc(C(=O)OC)c1	-1	2	2	5.1	-14%
O=C1NC(=Nc2ccccc2)SC1(CO)CO	x	-4	x	0.9	x
Cc1ccc(S(=O)(=O)N2CCC(=O)N(C(COCc3ccc(Cl)cc3)C(C)C)CC2)cc1 (centres undefined)	-21	56	-10	8.0	-5%
CC(Cc1ccccc1)NC(=O)c1ccc(N)cc1 (centres undefined)	x	-1	x	-1.7	x
COc1ccc(-c2cc(C(F)(F)F)n3nc(C(=O)N4CCCCC4)cc3n2)cc1OC	7	73	32	-9.8	-15%
O=C(CSc1nnc(CNC(=O)c2c(F)cccc2Cl)o1)NCc1ccc(F)cc1	x	2	x	1.3	x
Cc1ccsc1CNn1cnnc1SCc1ccccc1F	-3	-4	-10	1.2	-2%
O=C(COc1ccccc1)N/N=C/c1ccc(O[C@@H]2O[C@H](CO)[C@@H](O)[C@H](O)[C@H]2O)cc1	6	4	-31	1.7	1%
Cc1cccc(NC(=O)CSc2nnnn2C)n1	1	-3	-54	1.4	x
CCOC(=O)C1CCCN(S(=O)(=O)c2cccc3nsnc23)C1 (centres undefined)	x	-4	x	-0.3	x

Random excerpt: six compounds from above
SMILES	Arbovirus inh	Mtb betalactam	YopH inh	RecA intein inh	Mtb growth	others
Cc1ccc2nc(Cl)c(C3CC(c4cccs4)=NN3C(=O)CCCC(=O)O)cc2c1 (centres undefined)	4	2	-40	-2.0	-5%
C=CCn1c(SCC(=O)c2ccc(OC)cc2)nnc1-c1cc2cccc(OC)c2o1	-5	3	-11	3.1	-6%
Cc1ccc(C2(C)NC(=O)N(CC(=O)Nc3ccccc3N3CCCC3)C2=O)cc1 (centres undefined)	x	-1	x	10	x
CN(C)S(=O)(=O)N(CC(=O)N1CCOCC1)c1ccccc1	1	0	-43	-1.2	-2%
COc1cccc(C(=O)NCCCNC(=O)c2ccccn2)c1	x	-14	x	-0.2	x
Cc1ccsc1CNn1cnnc1SCc1ccccc1F	-3	-4	-10	1.2	-2%

Remaining list, next part:
SMILES	Arbovirus inh	Mtb betalactam	YopH inh	RecA intein inh	Mtb growth	others
Cn1c2ccccc2c2nnc(SC3CCOC3=O)nc21 (centres undefined)	2	0	-12	-1.8	-12%
CC(C)(O)C#Cc1ccc(CN2CCN(C3CCCC3)C(CCO)C2)cc1 (centres undefined)	-4	0	x	2.1	1%
CC(=O)Nc1ccc(/C=C/C(=O)c2ccc3c(c2)OCCO3)cc1	x	59	x	4.4	x
CC(=O)Nc1ccc(NC(=O)CSc2nnc3ccc(-c4ccccn4)nn23)cc1	x	-1	x	-1.6	x
Nc1nnnn1/N=C\c1ccc(Cl)c([N+](=O)[O-])c1	5	-8	-28	4.4	0%
Cc1ccc2nc(-c3ccc(NC(=O)CN(c4ccccc4C)S(C)(=O)=O)cc3)sc2c1	-5	-10	-5	0.1	13%
COc1ccc(OCCn2cncn2)cc1	4	-9	-12	0.1	-5%
COc1ccc(N(CC(=O)N2CCOCC2)S(C)(=O)=O)cc1OC	x	2	x	0.4	x
O=C(NCc1cnc2ccccn12)C1CCC(=O)N(Cc2ccccc2F)C1 (centres undefined)	x	3	x	0.2	x
Cc1oc2ccc(O)c(CN3CCOCC3)c2c1C(=O)c1ccc(Cl)cc1	14	6	-19	5.8	-9%
O=C(NN=C1CCCC1)c1ccc(Br)cc1	x	-2	x	1.6	x
NNC(=O)c1cn2ccccc2n1	-3	-1	-30	-2.3	-5%
CC(C)CCc1noc(CN2CCC(CCN3CCCC3=O)CC2)n1	-1	-8	x	1.6	-6%
CC(C)NC(=O)c1noc2cc([N+](=O)[O-])ccc12	0	-17	-30	0.8	-3%
NS(=O)(=O)c1ccc(CCNCC(=O)NCc2ccccc2Cl)cc1	x	-4	x	1.3	x
O=c1cc(NCC2CCCO2)[nH]c(=O)n1-c1ccc(Cl)cc1 (centres undefined)	22	-2	-29	-0.1	-1%
CCCS(=O)(=O)N1CCC(C(=O)N2CCOCC2)CC1	0	-2	-42	1.1	1%
Cc1c(C(c2ccccc2)c2c(C)n(C)n(-c3ccccc3)c2=O)c(=O)n(-c2ccccc2)n1C	x	-9	x	-1.2	x
Cc1nc(NC(=O)c2ccc(Br)o2)sc1C	-8	-2	-20	0.1	-4%
CCOC(=O)CC1C(=O)NCCN1C(=O)Nc1ccccc1 (centres undefined)	5	-7	-31	1.5	-10%
COC(=O)C1=C(c2ccccc2)C[C@@H]2CC[C@H]1N2C(=O)NC1CC1	x	0	x	-1.8	-1%
CN(C)S(=O)(=O)c1ccc(NC(=O)c2cc3ccccc3o2)cc1	-3	89	-48	4.7	-2%
COc1c(Cl)cc(-c2noc(C)c2C(=O)NC(C)C)cc1Cl	-2	-6	-26	-7.6	-4%	Arbovirus inh repeat=0
CC1Sc2ccc(S(=O)(=O)N3CCC(C(=O)NCC(C)c4ccccc4)CC3)cc2NC1=O (centres undefined)	x	4	x	-1.5	x
COc1ccc(N(CC(=O)Nc2cccc(N(C)S(C)(=O)=O)c2)S(=O)(=O)c2ccc(C)cc2)cc1	-10	6	x	3.5	6%
CCCCNC(=S)NCCN1CCCCC1	-6	-3	-16	-1.6	-14%
O=C1CCC2=C(CCCC2=O)N1	-1	-9	x	-0.9	4%
COc1ccc(CN2CCN(C(C)C)C(CCO)C2)cc1Cn1cncn1 (centres undefined)	10	-7	x	-3.0	7%
CON(C)c1nc(C2CCCCC2)c2cc(C)ccc2n1	x	98	x	3.3	6%
Oc1c(Br)cc(C=Nc2ccc3nc(-c4ccccc4)[nH]c3c2)c(O)c1Br	0	11	x	-2.6	7%
CC(=O)c1cn(CC(=O)NCCc2c[nH]c3ccccc23)c2ccccc12	x	8	x	-1.5	x
CN1C(=O)C(=Cc2ccc(N3CCOCC3)o2)C(=O)N(C)C1=O	-9	-3	-11	-2.5	6%
CCc1ccccc1NC(=O)NC1CC2CCC(C1)N2Cc1cccs1 (centres undefined)	-3	2	-37	0.2	0%
CCCCC(=O)N/N=C/c1c(O)n(-c2cccc3ccccc23)c(=O)[nH]c1=O	x	6	x	-0.7	-8%
O=C(CN(C(=O)c1csnn1)c1cccc(C(F)(F)F)c1)NC1CCCC1	x	-8	x	-3.7	x
CCOc1ccccc1NC(=S)Nc1ccc(S(N)(=O)=O)cc1	3	0	x	2.3	0%
N#C/C(=C\c1ccc(-c2cccc([N+](=O)[O-])c2)o1)C(=O)N1CCOCC1	-6	6	x	-3.6	-7%
